Screens: PubChem BioAssay, ICCB-Longwood Screening Facility, Harvard Medical School
GIV Gai3 FP: GIV-Galpha-i interaction inhibition; P08753; Galpha-i3/FITC-GIV peptide fluorescence polarization, 90 min; stronger effect = lower value; scaled: aluminum fluoride 0%, vehicle 100%; percent of control (FP), % (no concentration beside the values); actives 0.42% (n = 210,000);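 active = replicate mean at 85% of control or lower, very high polarization wells dropped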;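 note: wells of about 15 µL received 100 nL stock; the first replicate is given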
Target sequence (P08753 whole entry, looked up): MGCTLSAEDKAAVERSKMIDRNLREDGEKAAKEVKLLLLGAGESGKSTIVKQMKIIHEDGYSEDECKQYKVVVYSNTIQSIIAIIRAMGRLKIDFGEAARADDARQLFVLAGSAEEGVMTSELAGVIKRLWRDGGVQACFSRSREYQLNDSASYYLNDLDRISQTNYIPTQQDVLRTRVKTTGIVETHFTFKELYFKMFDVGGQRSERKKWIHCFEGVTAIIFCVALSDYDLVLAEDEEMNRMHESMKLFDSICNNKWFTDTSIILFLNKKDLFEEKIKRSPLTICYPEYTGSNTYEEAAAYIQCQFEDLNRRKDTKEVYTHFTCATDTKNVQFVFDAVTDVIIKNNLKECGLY
Numbers without * were called inactive. The list is partial; rates above refer to the full screens.

SMILES	GIV Gai3 FP
CCCCCc1ccc(-c2ccc(C(=O)OC34CCC5(CCC)CC3CCC5C4)cc2)cc1 (stereo not given)	106
O=C(Cn1nc2c(SC3CCCCC3)nccn2c1=O)N1CCN(c2ccc(F)cc2)CC1	100
O=[N+]([O-])c1ccc(N2CCCCC2)cc1Sc1nc2ccccc2[nH]1	88
O=C1/C(=C/c2ccc(-c3ccc(Br)cc3)o2)C=C(c2ccccc2)N1c1ccc(Br)cc1	122
CCOc1ccc(C2C(C#N)=C(SCc3ccccc3Cl)NC(=O)C2C(=O)OC)cc1 (stereo not given)	109
Cc1cc(N2CCCC2)nc(Nc2ccc(NC(=O)Nc3ccc(F)cc3)cc2)n1	106
CCN1CCN(S(=O)(=O)c2c(C)[nH]c(C)c2-c2nnc(C3CCC3)o2)CC1	109
CCN1CCN(S(=O)(=O)c2cc(-c3nnc(C(C)C)o3)co2)CC1	101
O=C1/C(=C/c2ccc(Cl)cc2)C=C(c2ccccc2)N1c1ccc(O)cc1	112
CC(=O)NCc1nc(-c2ccc3c(c2)nnn3C)no1	91
CC(=O)c1cccc(NC(=O)CSC2=C(C#N)C(c3ccccc3C(F)(F)F)C3=C(CCCC3=O)N2)c1 (stereo not given)	105
CCOC(=O)c1ccc(N2N=C(C)/C(=C\c3cccn3-c3ccc([N+](=O)[O-])cc3)C2=O)cc1	107
COc1ccc(C2/C(=C(\O)c3ccccc3)C(=O)C(=O)N2c2ccc(Br)cn2)cc1 (stereo not given)	122
O=C(NC(C(=O)Nc1ccc(Br)cc1)C12CC3CC(CC(C3)C1)C2)c1ccccc1 (stereo not given)	105
Cc1noc(C)c1Cn1nc2n(Cc3ccc(F)cc3)c(=O)c3nn(C)cc3n2c1=O	108
CCN(c1ccccc1)S(=O)(=O)c1cc(C(=O)Nc2cccc(Cl)c2)ccc1F	103
Cc1nc(N2CCCCC2)c2c(C)c(C(=O)N3CC(C)CC(C)C3)sc2n1 (stereo not given)	106
O=C(NCc1ccc(F)cc1F)c1sc2ncccc2c1-n1cccc1	101
OC1(c2ccc(OC(F)F)cc2)CN(c2ccccc2)C2=[N+]1CCCS2 (stereo not given)	111
O=c1/c(=C/c2cccs2)sc2nc(-c3ccccc3)c(-c3ccccc3)n12	119
O=C(c1ccc2c(=O)n(CCc3c[nH]c4ccccc34)c(=S)[nH]c2c1)N1CCCCC1	103
CC(C)c1cc(C2CCCN2Cc2ccc(O)cc2)no1 (stereo not given)	109
CC1(C)CC(=O)C2=C(C1)Nc1[nH]c(=S)[nH]c(=O)c1C2c1ccccc1 (stereo not given)	113
CCCOc1ccc(-c2nn3c(=O)c(NC(=O)c4ccc(F)cc4)cnc3o2)cc1	106
COc1ccc(C2=NN(C(C)=O)C(c3cccc(OCc4cccc5ccccc45)c3)O2)cc1 (stereo not given)	115

The list goes on.
SMILES	GIV Gai3 FP
CCOC(=O)c1ccc(Nc2ccc([N+](=O)[O-])cc2-c2nc3nc(-c4cc(C(C)(C)C)cc5c4CCC5(C)C)cn3[nH]c2=O)o1	205
CN(C)CCCNCc1cccc(Oc2nnnn2-c2ccccc2)c1	102
O=C(O)c1ccccc1N=CC12c3ccccc3C(c3ccccc31)C1C(=O)N(c3cccc4ccccc34)C(=O)C12 (stereo not given)	102
Cc1ccc(-c2ccc3nnc(C)n3n2)cc1	115
CCn1c(SCC(=O)N2CCc3cc(Br)ccc32)nnc1-c1cc2ccccc2o1	101
COCc1oc2c(cc(NS(=O)(=O)c3ccc(Br)cc3)c3ccccc32)c1C(=O)OC	124
Cc1ccc(C)c(N2C(=O)/C(=C/c3ccc(Br)cc3)C=C2c2ccccc2)c1	118
Cc1noc(C)c1S(=O)(=O)N1CCc2c(c(COCc3ccc(F)cc3Cl)nn2C)C1	102
CCn1c(C2CCN(S(=O)(=O)c3ccc(Cl)s3)C2)nc2cccnc21 (stereo not given)	101
O=C1CN(C(=O)c2ccc(N3CCOCC3)c([N+](=O)[O-])c2)c2ccccc2N1	102
CCOC(=O)C1=C(C)NC(=O)NC1c1c(OCC(=O)N2CCOCC2)ccc2ccccc12 (stereo not given)	111
O=c1c2cc3c(cc2nc(SCc2nc(-c4ccc(F)cc4)no2)n1Cc1ccccc1)OCO3	113
Cc1nc(SCc2noc(CCC(=O)Nc3cc(F)cc(F)c3)n2)n[nH]1	102
CC(C)c1csc(-c2csc(S(=O)(=O)Nc3ccc(F)cc3Cl)c2)n1	104
O=C1c2ccccc2Sc2cc(-c3noc(-c4ccc5c(c4)OCO5)n3)ccc2N1C1CC1	99
Cc1cc(N2CCC(C(=O)NC3CCCc4ccccc43)CC2)n2nc(-c3ccccc3)cc2n1 (stereo not given)	114
O=C(NC1CCCC1)c1ccc(OCc2nnc(C(=O)Nc3ccc(Cl)cc3)s2)cc1	102
COc1ccccc1N1CCN(C(=O)c2sc3ncccc3c2-n2cccc2)CC1	105
Cc1ccc(-c2nn3c(=O)cc(CN4CCN(C(=O)Nc5cc(C)cc(C)c5)CC4)nc3s2)cc1	103
Cc1c(C(=O)Nc2c(F)cc(F)cc2Br)sc2ncn(CC(=O)N3CCCCC3C)c(=O)c12 (stereo not given)	103
CCN1C(=O)c2cccc3c(NC(=S)NC(=O)c4ccc(S(=O)(=O)N5CCCC5)cc4)ccc1c23	107
O=C1Nc2cc(C(=O)N3CCN(c4ccccn4)CC3)ccc2SC1N1CCOCC1 (stereo not given)	106
Cc1ccc(C2Nc3ccc4ncccc4c3C3=C2C(=O)CCC3)cc1 (stereo not given)	102
Cc1ccc(N=C(NOC(=O)c2ccccc2)c2nonc2N)c(C)c1	112
Cc1nnc(NC(=O)CSc2nc3c(=O)n(C)c(=O)n(C)c3n2C)s1	99

(cont.)
SMILES	GIV Gai3 FP
CCCn1c(=O)[nH]c2c(C(=O)N3CCC(C(=O)OCC)CC3)snc2c1=O	105
COCCCNC(=O)c1cc2cc(S(=O)(=O)N(C)C)ccc2n1Cc1ccncc1	100
Cc1ccc(-c2csc(-c3cc4ccccc4oc3=O)n2)cc1C	111
CCn1c(CCc2ccc(NS(=O)(=O)c3c(C)noc3C)cc2)nc2ccccc21	117
CCOC(=O)C1CCN(C(=O)CSc2nccc3c2ccn3Cc2ccc(F)cc2)CC1	99
CCOC(=O)c1[nH]c(C)c(CCC(=O)N2CCCC(C(=O)N3CCCC3)C2)c1C (stereo not given)	108
CCC(Sc1nc(NCCc2ccccc2)c2ccccc2n1)C(=O)NCc1ccco1 (stereo not given)	109
Cc1cccc(N2CCN(C(=O)C3CCN(c4ncnc5c4oc4ccccc45)CC3)CC2)c1C	106
Cc1ccc(S(=O)(=O)N2CCC(c3nc4cc(C(=O)N5CCCC5)ccc4n3C3CCCCC3)CC2)cc1	106
O=C(CN1C(=O)CN(C(=O)NCc2ccccc2)c2ccccc21)N1CCCCC1	97
COc1ccc(Cl)cc1C1Nc2ccc(C)cc2[C@H]2OCC[C@@H]12 (stereo not given in full)	101
Cc1csc(-c2cc(S(=O)(=O)NCCN3CCC(C)CC3)cn2CC(=O)N2CCCCC2)n1	106
CCCCCCc1cc2cc(-c3csc(Nc4cc(OC)ccc4OC)n3)c(=O)oc2cc1O	134
CCOc1ccccc1N1CCN(C(=O)Cn2ccc3c(c(C)nn3-c3ccccc3)c2=O)CC1	97
Cc1nn(-c2nc3ccc(Br)cc3s2)c2c1C(c1ccc(F)cc1F)CC(=O)N2 (stereo not given)	101
COc1cccc(C(=O)N2c3ccc(Cl)cc3-c3c(ssc3=S)C2(C)C)c1	122
O=C(CCN1CCOCC1)Nc1cc(C(=O)Nc2ccc3c(c2)OCCO3)ccc1N1CC2CC(C1)c1cccc(=O)n1C2 (stereo not given)	120
Cc1ccc(-c2cnc3n2CCCCC3)cc1	106
COc1ccc2c(c1)c(=O)c1ccccc1n2CC(=O)Nc1ccc(OC)c(Cl)c1	112
Cc1cc(NS(=O)(=O)c2cccc(-c3noc(C)n3)c2)no1	98
C=CCN1C(=O)/C(=C2/Sc3ccccc3N2C)SC1=S	133
Cc1ccc(CS(=O)(=O)N2CCC(CN3CCCC(C)C3)CC2)cc1C (stereo not given)	105
CC1(C)CN(C(=O)C2CC2)c2ccc(S(=O)(=O)N3CCCCC3)cc21	101
Cc1ccc(CNC2=NCCNC23CCC(c2ccccc2)CC3)cc1 (stereo not given)	98
Cc1cccc(S(=O)(=O)N(C)CC2(C)CCOCC2)c1	105

Next part
SMILES	GIV Gai3 FP
O=C(COc1ccccc1)Nc1ccccc1NC(=O)COc1ccccc1	111
CC(=O)c1ccc(NC(=O)CSc2nc3ccc(NC(=O)CCc4ccccc4)cc3s2)cc1	101
CCc1cc(C2CCCN2S(=O)(=O)c2ccccc2F)on1 (stereo not given)	103
O=S(=O)(NC1CCN(c2ncnc3c2CCC3)C1)c1cccnc1 (stereo not given)	96
O=S1(=O)N=CN(c2cccc(F)c2)c2ncccc21	107
O=S(=O)(c1cn(Cc2noc(-c3ccc4c(c3)OCO4)n2)cn1)N1CCCCC1	111
COc1cccc(C2NC(=S)NC(C)=C2C(=O)Nc2ccccc2C)c1OC (stereo not given)	125
COC(=O)c1ccc(/C=c2\sc3nnc(-c4ccccc4)n3c2=O)cc1	106
Cc1cccc(N2CCN(c3cc(NCCCO)c([N+](=O)[O-])c4nonc34)CC2C)c1 (stereo not given)	103
CCOC(=O)c1c(CSc2ccccc2)n(-c2ccccc2)c2cc(Br)c(OC(C)=O)cc12	97
O=C(NCc1cc(F)cc(F)c1)C1CCN(c2ncnc3c2oc2ccccc23)CC1	105
COc1ccc(-n2nnc3c(N4CCN(C(=O)COc5ccc(F)cc5)CC4)ncnc32)cc1	100
O=C(Cn1nc2c3sccc3ncn2c1=O)Nc1ccc(Cl)cc1	102
COc1ccc(C2C3=C(CC(C)(C)CC3=O)OC3=C2C(=O)CC(C)(C)C3)cc1COc1ccccc1F	103
CCN1CCn2cc(S(=O)(=O)N3CCCc4ccccc43)cc2C1=O	104
COc1ccc(N2CC(O)(c3ccc(Br)cc3)[N+]3=C2CCCC3)cc1 (stereo not given)	103
COc1cc(CSc2nc3c(cnn3-c3ccccc3)c(=O)[nH]2)cc(OC)c1	101
Cc1ccc(N2NC(C)(CC(C)C)NC2=S)cc1 (stereo not given)	113
CCOC(=O)c1c(CN2CCCCC2)n(-c2ccccc2)c2cc(Br)c(O)c(CN3CCOCC3)c12	101
Fc1ccc(C2=CC(c3ccccc3)n3c(nc4ccccc43)N2)cc1 (stereo not given)	107
CCN(Cc1ccccc1)C(=O)c1c[nH]c2ccc(S(=O)(=O)N3CCC4(CC3)OCCO4)cc2c1=O	112
O=C(Cn1nc2c3scc(-c4ccc(F)cc4)c3ncn2c1=O)Nc1ccc(Br)cc1	98
CN(c1ncnc2sc3c(c12)CCCC3)C1CCCCC1	104
O=C(O)CCN1C(=O)/C(=C2/C(=O)N(CC(=O)Nc3cccc(Cl)c3)c3ccccc32)SC1=S	112
CN1CC(=O)N(CC(=O)NCCc2nc3ccccc3[nH]2)c2ccccc2C1=O	107

4 of the entries above in order of their number in GIV Gai3 FP, falling.
SMILES	GIV Gai3 FP
O=S1(=O)N=CN(c2cccc(F)c2)c2ncccc21	107
CN(c1ncnc2sc3c(c12)CCCC3)C1CCCCC1	104
CC(=O)c1ccc(NC(=O)CSc2nc3ccc(NC(=O)CCc4ccccc4)cc3s2)cc1	101
O=S(=O)(NC1CCN(c2ncnc3c2CCC3)C1)c1cccnc1 (stereo not given)	96

In another format: entries from further up
SMILES,GIV Gai3 FP
COc1ccc(C2C3=C(CC(C)(C)CC3=O)OC3=C2C(=O)CC(C)(C)C3)cc1COc1ccccc1F,103
CCN1CCn2cc(S(=O)(=O)N3CCCc4ccccc43)cc2C1=O,104
COc1ccc(N2CC(O)(c3ccc(Br)cc3)[N+]3=C2CCCC3)cc1 (stereo not given),103
COc1cc(CSc2nc3c(cnn3-c3ccccc3)c(=O)[nH]2)cc(OC)c1,101
Cc1ccc(N2NC(C)(CC(C)C)NC2=S)cc1 (stereo not given),113

(further entries)
SMILES	GIV Gai3 FP
COC(=O)Cn1nc2c(-c3nc(-c4ccc(Cl)cc4)no3)cccn2c1=O	54*
Cc1cccc(C)c1NC(=O)CSC1=C(C#N)C(c2cccs2)C2=C(CCCC2=O)N1 (stereo not given)	110
Nc1nnc(SCC(=O)Nc2nnc(SCC(=O)Nc3ccc(Br)cc3)s2)s1	105
Cc1cccc(C(=O)Nc2cccc(-c3ccc4ccccc4n3)c2)c1	101
COCCOC(=O)C1=C(C)NC(=O)CC1c1ccccc1Cl (stereo not given)	103
COc1cc(OC)c(NC(=O)c2sc3ncn(CC(=O)Nc4cccc(C(F)(F)F)c4)c(=O)c3c2C)cc1Cl	102
CCN1C(=O)CC(C(=O)NCCc2ccc(S(N)(=O)=O)cc2)SC1=Nc1ccc(OC)cc1 (stereo not given)	112
Cc1cccc2sc(NC(=O)c3sc4ncn(CC(=O)Nc5cccc(C(F)(F)F)c5)c(=O)c4c3C)nc12	105
Fc1ccc(Oc2ccc(-c3noc(-c4cnccn4)n3)cc2)cc1	102
CCc1onc(C)c1C1CCCN1Cc1cn(CC)c2ccccc12 (stereo not given)	136
CCOP(=O)(OCC)c1nc(-c2ccc(Cl)cc2Cl)oc1N1CCOCC1	114
CCOC(=O)C1=C(N)N(c2ccccc2)C2=C(C(=O)CC(C)(C)C2)C1c1cc(OC)c(OC)c(OC)c1 (stereo not given)	102
Cc1c(N2C(=O)/C(=C/c3ccc(Br)cc3)SC2=S)c(=O)n(-c2ccccc2)n1C	104
Cc1nn(-c2nc3ccccc3[nH]2)c2c1C(c1ccccc1)CC(=O)N2 (stereo not given)	108

Laid out differently: four of the compounds above.
molecule,GIV Gai3 FP
Cc1cccc2sc(NC(=O)c3sc4ncn(CC(=O)Nc5cccc(C(F)(F)F)c5)c(=O)c4c3C)nc12,105
Fc1ccc(Oc2ccc(-c3noc(-c4cnccn4)n3)cc2)cc1,102
CCc1onc(C)c1C1CCCN1Cc1cn(CC)c2ccccc12 (stereo not given),136
CCOP(=O)(OCC)c1nc(-c2ccc(Cl)cc2Cl)oc1N1CCOCC1,114
